VACV Venus inh – vaccinia inhibition (Venus reporter); actives 0.46% (n = 330,000); AID 720580; Potency, µM (titrated, usually from 36.5 µM), for the others: at the highest dose activity change, negative = inhibition, usual class: inhibitors; Vaccinia virus Venus reporter expression, fluorescence; active means well fitted inhibition curve with a large enough effect; inconclusive means small, poorly fitted or top-dose-only effect; inactive means no such curve, though single readings can be large or run the other way; tested in A549 cells; note: nearly all actives have a fitted effect of over 30% in size; inactives centre near -10
VACV mCherry inh – vaccinia inhibition (mCherry reporter). actives 0.63% (n = 310,000). Vaccinia virus mCherry reporter infection, fluorescence; about a quarter of the inactives have no number. AID 720579. Potency, µM (titrated, usually from 36.5 µM), for inactives: top-dose activity change, negative = inhibition, hits mostly inhibitors; active = well fitted inhibition curve with a large enough effect; inconclusive = small, poorly fitted or top-dose-only effect; inactive = no such curve, though single readings can be large or run the other way; tested in A549 cells; note: nearly all actives have a fitted effect of over 35% in size; inactives centre near -10
An asterisk follows results filed as active; i = inactive; ? = inconclusive; / = not tested or not shown; & = joins results of further samples; [ ] = another dose, or the depositor's remark. % is set by controls: 0 for no effect and ±100 for the full control effect; potency is the fitted concentration of half-maximal effect.

The first two compounds as a preview:
SMILES | VACV Venus inh | VACV mCherry inh
O=C(O)C1CCCCC1C(=O)Nc1ccc(S(=O)(=O)N2CCCC2)cc1 (stereo not drawn) | 3% | i
Cc1cc2nc3n(c2cc1C)CC1CC(C(=O)NCc2ccccc2)N(C)C31 (stereo not drawn) | -3% | -12%

The listing (from the top)
SMILES | VACV Venus inh | VACV mCherry inh
O=C(O)C1CCCCC1C(=O)Nc1ccc(S(=O)(=O)N2CCCC2)cc1 (stereo not drawn) | 3% | i
Cc1cc2nc3n(c2cc1C)CC1CC(C(=O)NCc2ccccc2)N(C)C31 (stereo not drawn) | -3% | -12%
CSc1oc(-c2cccs2)nc1S(=O)(=O)c1ccc(Br)cc1 | -10% | -13%
CCOC(=O)C1(C)NC(c2ccc(OC)c(OC)c2)C2C(=O)N(CC)C(=O)C21 (stereo not drawn) | -2% | -10%
COc1ccc(C2=NN(C(=O)c3ccco3)C(c3ccco3)C2)cc1OC (stereo not drawn) | -13% | -27%
Cn1c2ccccc2c2nnc(SCC(=O)NC3CC3)nc21 | 10% | 24%
CCOC(=O)c1ccc(N2CCN(c3ccccc3OC)CC2)c(NC(=O)Nc2ccc(CC)cc2)c1 | -13% | -18%
CC(C)(C)OC(=O)C[C@@H]1C/C=C\C[C@@H](CC(=O)N[C@@H](CO)Cc2ccccc2)C(=O)NCCOC1=O | -11% | i
CCN1CCN(C(c2cccs2)C(C)NC(=O)c2cccnc2)CC1 (stereo not drawn) | -12% | -5%
COc1cc(NC(=S)NC(=O)c2ccc(C)cc2C)ccc1NC(=O)c1cccs1 | -9% | /
Cn1nc(C(F)(F)F)c(CNC(=O)C(C)(C)CCl)c1N1CCOCC1 | 4% | i
CCCCCCN=C1CC(C)(C)CC(=O)/C1=C(/O)CCC | -29% | -13%
COc1ccc(C(=O)NCC(=O)N/N=C/c2cccnc2)cc1OC | -21% | i
COc1ccc(-c2cc(C(F)(F)F)n3nc(C(=O)Nc4cc(C(F)(F)F)ccc4Cl)cc3n2)cc1OC | -5% | 15%
CCCc1cc(=O)[nH]c(SCC(=O)N2CCN(S(=O)(=O)c3ccccc3)CC2)n1 | -6% | -11%
CC(=O)Nc1c(O)c2cccc3c2n(c1=O)CCC3 | -4% | -10%
CCCCOC(C)n1cc(F)c(=O)[nH]c1=O (stereo not drawn) | -7% | -16%
CCCN1CCN(CCCNC(=S)Nc2ccc(OC)cc2)CC1 | -14% | i
CC(C)Oc1ccc(C(=O)Nc2c3c(nn2-c2ccccc2)CS(=O)(=O)C3)cc1 | -3% | -11%
O=C(O)c1cc(N/N=C/c2cccc3ccccc23)ccc1Cl | 6% | -4%
COc1ccc(NC(=O)C2CCN(S(=O)(=O)c3cn(C)cn3)CC2)cc1Cl | -4% | -11%
CN(C)CCCNS(=O)(=O)c1ccc(-n2nnc3ccccc32)c([N+](=O)[O-])c1 | -7% | -24%
O=Cc1c(Cl)nc2ccccn12 | -9% | -7%
O=C(CN1CCOCC1)NN=Cc1ccc([N+](=O)[O-])o1 | -7% | 3%
O=C1CC(c2cccc(Br)c2)c2cc3c(cc2N1)CCC3 (stereo not drawn) | ? | ?
CCN(CC)c1ncnc2c1cnn2Cc1ccc(C)cc1 | -9% | -7%
O=C(CNc1cc(S(=O)(=O)N2CCOCC2)ccc1N1CCCC1)N1CCc2ccccc21 | 5% | -5%
CCN(C(=O)CSc1nc2c(cnn2-c2ccccc2)c(=O)[nH]1)C1CCS(=O)(=O)C1 (stereo not drawn) | -6% | i
CC(C)C1C(=O)N(Cc2cn(Cc3ccco3)nn2)CCS(=O)(=O)N1Cc1ccc(-c2ccc(F)nc2)cc1 (stereo not drawn) | -22% | -10%
Cc1nc(N2CCC(C)CC2)c(C#N)c(C)c1[N+](=O)[O-] | -6% | -2%
COc1ccccc1-c1cc(C(=O)N/N=C\c2cnn(C)c2C)c2ccccc2n1 | 0% | -25%
COc1ccc2[nH]c(C)c(C(=O)CN3CC(C)OC(C)C3)c2c1 (stereo not drawn) | -10% | -23%
CC(C)(C)NC(=O)CN(C(=O)c1csnn1)c1ccccc1-c1ccccc1 | -19% | -19%
COc1ccc(NS(=O)(=O)c2ccc(O)c([N+](=O)[O-])c2)cc1S(=O)(=O)N1CCCCC1 | 4% | -24%
CCOc1ccc(/C=N/n2c(SC)nnc(C(C)(C)C)c2=O)cc1 | 17% | /
COCCn1nnnc1CN1CCC(NC(=O)c2ccc(Br)cc2)CC1 | -18% | -6%
CC(=O)C1=C(O)C(=O)N(CC(=O)O)C1c1ccccc1Cl (stereo not drawn) | 7% | 3%
O=C(c1cccc(Cl)c1Cl)N1CCN(c2ccccn2)CC1 | -2% | -13%
Cc1cc(C)c(C(=O)N2CCCC(N3CCN(c4ccc(F)cc4)CC3)C2)o1 (stereo not drawn) | -14% | -13%
COc1cccc(N2CCN(C(=O)C3CCN(S(=O)(=O)c4cn(C)cn4)CC3)CC2)c1 | -8% | i
O=C(Nc1nonc1-c1ccc(Cl)cc1)c1ccccc1 | -15% | ?
CS(=O)(=O)c1cccc(C(=O)Oc2ccccc2)c1 | -18% | i
Cc1c(C(=O)N2CCCC2)oc2c1-c1nn(CC(=O)NCc3cccc(F)c3)cc1CC2 | -15% | -21%
Nc1c(Cl)cc2c(c1Br)Cc1ccccc1-2 | 1% | -24%
CCc1ccc(OCC(=O)Nc2ccc3c(c2)c2ccccc2n3CC)c(Br)c1 | 2% | -12%
COc1ccc(S(=O)(=O)N2CCOCC2)cc1NC(=O)COc1ccc(C)cc1 | -15% | -2%
Cc1ccc(S(=O)(=O)C(CNS(=O)(=O)c2ccc(F)c(C(F)(F)F)c2)c2ccco2)cc1 (stereo not drawn) | -22% | -21%
O=C(CCc1nc2ccccc2s1)NC1CCOC1=O (stereo not drawn) | 4% | -5%
CC(=O)NS(=O)(=O)c1ccc(NC(=O)c2ccc3c(c2)C(=O)N(CCC(C)C)C3=O)cc1 | -7% | i
CCOc1ccccc1NC(=O)Cn1nnc(C(=O)Nc2ccc(C)c(C)c2)c1N | 1% | -10%
COC(=O)[C@H](CCSC)NC(=O)Cn1ccc(N)nc1=O | -7% | i
CN(C(=O)c1cccc(NC(=O)Cc2ccc(NC(=O)C3CCN(C(=O)C4CC4)CC3)cc2)c1)C1CCC1 | -12% | i
CC(CC(c1ccccc1)N1CCc2ccccc2C1)=NO (stereo not drawn) | -17% | -16%
COc1ccc(-c2nc(C)ncc2N=Nc2ccccc2)cc1 | -2% | /
COc1ccccc1CCNCc1cc2c(cc1[N+](=O)[O-])OCO2 | 5% | 1%
O=C(C1CCCO1)N1CCN(C(=O)C23CC4CC(CC(C4)C2)C3)CC1 (stereo not drawn) | 2% | -3%
CC(CO)(CO)N=Cc1c(O)n(-c2cccc3ccccc23)c(=O)[nH]c1=O | -1% | -12%
COC(=O)C1=C(c2ccc(F)cc2OCc2ccccc2)C[C@@H]2CC[C@H]1N2C(=O)NCc1cccc(F)c1 | ? | -14%
Cc1cc(=O)c(C(=O)c2ccccc2)c(C)o1 | -4% | i
CNC(=S)NNC(=O)COc1ccc(C)c(C)c1 | -16% | i

Carrying on:
SMILES | VACV Venus inh | VACV mCherry inh
Cc1ccccc1-n1c(SCc2cccc(F)c2)nc2[nH]ncc2c1=O | -24% | -11%
Cc1ccc(C)c(/C=N/Nc2nc3ccccc3c(=O)n2O)c1 | -11% | -5%
CCN(CCn1cccn1)C(=O)c1cccc(OC2CCN(S(C)(=O)=O)CC2)c1 | 0% | -10%
O=S(=O)(NC1CC1)c1ccc(Cl)cc1 | -9% | 0%
NC(=O)Cn1nc([N+](=O)[O-])nc1Oc1ccccc1F | -5% | i
Cc1ccc(C(=O)Nc2ccc(N3CCN(C(=O)c4ccco4)CC3)cc2)cc1 | 1% | -11%
Cc1csc(NC(=O)/C=C/c2ccc(C)o2)n1 | -7% | -8%
CCn1ncc(S(=O)(=O)N2CCN(c3cccc(OC)c3)CC2)c1C | -12% | i
CCOC(=O)Cn1cnc2scc(-c3ccccc3)c2c1=O | -4% | -18%
O=C(Cc1c(F)cccc1Cl)NNC(=O)Nc1ccc2c(c1)OCO2 | -11% | -17%
COCCSc1nnc(NC(=O)C(C)(C)C)s1 | -9% | -10%
COc1ccc(NC(=O)c2cc3c(=O)n(Cc4cccnc4)ccc3nc2C)cc1OC | 4% | 3%

Compound profiles, from the list above. Order of values: VACV Venus inh	VACV mCherry inh
`CCOC(=O)Cn1cnc2scc(-c3ccccc3)c2c1=O` across the screens: -4%	-18%
`O=C(Cc1c(F)cccc1Cl)NNC(=O)Nc1ccc2c(c1)OCO2` across the screens: -11%	-17%
`CCN(CCn1cccn1)C(=O)c1cccc(OC2CCN(S(C)(=O)=O)CC2)c1` across the screens: 0%	-10%
`Cc1ccccc1-n1c(SCc2cccc(F)c2)nc2[nH]ncc2c1=O` across the screens: -24%	-11%
`Cc1csc(NC(=O)/C=C/c2ccc(C)o2)n1` across the screens: -7%	-8%

New compounds follow:
SMILES | VACV Venus inh | VACV mCherry inh
O=C(Cn1c(-c2cccs2)cc2cc(Cl)ccc21)N1CCN(c2ccccc2F)CC1 | -16% | -12%
C/C(=C(\C#N)C(=O)NCCCN1CCOCC1)N(C)C | -1% | /
COc1ccc(NC(=O)c2cn3c(nc4ccccc43)c(C#N)c2C)cc1 | -8%[7.34 µM] | i[7.34 µM]
CCN1CCN(c2nc(Nc3cccc(C)c3)nc(N)c2[N+](=O)[O-])CC1 | -26% | ?
Cc1ccc(-c2nnn(CC(=O)N(CC(=O)NC3CCCC3)c3cnc4ccccc4c3)n2)o1 | -12% | -15%
CC(C)OC(=O)c1ccc2ccc(-c3ccccc3)nc2c1 | -8% | 4%
COc1ccc(CCN=CC2=C(O)CC(C)(C)CC2=O)cc1 | -17% | i
O=C(Oc1ccc(-c2nnco2)cc1)N(c1ccccc1)c1ccccc1 | -17% | -18%
CNCc1c(OCc2ccccc2)ccc2ccccc12 | -11% | -25%
COc1ccc(C)cc1NC(=O)CCn1nc(C)cc1C | -1% | -5%
CN(C(=O)c1cc2c(=O)n3ccccc3nc2s1)C1CCCCC1 | -14% | -19%
Cc1cc(NC(=O)CSc2nc3ccsc3c(=O)n2CCCC(=O)NCCc2ccccc2)no1 | -9% | -1%
COC(=O)[C@@H]1CCCN1C(=O)c1c(OC)cc(=O)n2c1CCN(Cc1ccc3c(c1)OCCO3)CC2 | -9% | -7%
CC1CN(CC(=O)N2CCc3[nH]c4ccccc4c3C2)CC(C)O1 (stereo not drawn) | -7% | /
CCc1ccc(S(=O)(=O)c2cn(Cc3ccc(OC)cc3)c3cc(OC)c(OC)cc3c2=O)cc1 | -9% | -15%
Cc1ccc(C(=O)NNC(=O)c2ccc(S(=O)(=O)N(C)c3ccccc3)cc2)cc1 | -1% | -12%
O=C(CS(=O)(=O)c1nc(-c2ccc(Cl)cc2)cn1-c1ccccc1)Nc1cccc(Cl)c1 | -29% | -5%
CCOC(=O)N1CCN(C(=O)C2CCN(C(=O)c3ccccc3C)CC2)CC1 | -4% | -11%
CC(OC(=O)c1c(F)cccc1F)C(=O)NCCC1=CCCCC1 (stereo not drawn) | -15% | -11%
CC(=O)N1c2ccccc2Oc2cc3ccccc3cc21 | -8% | -9%
Cc1ccc(-c2cc(NC(=O)CCl)n(-c3ccccc3)n2)cc1 | -12% | -5%
CC1CC(=O)Nc2ccccc2N1C(=O)COc1ccc2ccccc2c1 (stereo not drawn) | -21% | i
O=C(NCc1ccc2c(c1)OCO2)C(=O)NCC(c1ccco1)N1CCN(c2ccccc2)CC1 (stereo not drawn) | -2% | -21%
COc1ccc(OCc2ccc(-c3nc(C#N)c(N4CCN(c5cccc(Cl)c5)CC4)o3)o2)cc1 | -6% | -9%

Reprinted from the results shown, four compounds:
SMILES | VACV Venus inh | VACV mCherry inh
COc1ccc2[nH]c(C)c(C(=O)CN3CC(C)OC(C)C3)c2c1 (stereo not drawn) | -10% | -23%
CC(C)(C)NC(=O)CN(C(=O)c1csnn1)c1ccccc1-c1ccccc1 | -19% | -19%
COc1ccc(NS(=O)(=O)c2ccc(O)c([N+](=O)[O-])c2)cc1S(=O)(=O)N1CCCCC1 | 4% | -24%
CCOc1ccc(/C=N/n2c(SC)nnc(C(C)(C)C)c2=O)cc1 | 17% | /

Remaining list, next part
SMILES | VACV Venus inh | VACV mCherry inh
O=C(CNc1cccc(Br)c1)Nc1ccc(S(=O)(=O)N2CCCCC2)cc1 | -29% | -22%
COc1ccc2sc(-c3ccccc3OC)c(-c3ccc(OCCN4CCOCC4)cc3)c2c1 | ? | i
Cn1c(=O)c2c(-c3ccc(OC(F)F)cc3)cc(-c3ccccc3)nc2n(C)c1=O | -12% | -10%
O=C(NCc1ccccc1)c1ccc(NC(=O)N2CC3CCCN3c3ccccc32)cc1 (stereo not drawn) | -6% | 4%
CCCNC(=O)NC(=O)CSc1nc2ccccc2n1CC(C)C | -9% | -27%
Cc1cc(CSc2ccccc2)ccc1NC(=O)COc1ccccc1C | 2% | i
CCOC(=O)C1CCN(C(=O)C2CCN(C3=NS(=O)(=O)C(c4ccc(C)cc4)=C3CC)CC2)CC1 | -8% | -12%
C=CCSc1nc(N)c(NC(=O)c2ccco2)c(=O)[nH]1 | -8% | i
COC(=O)C1=C(C)N(c2ccc(C)cc2)/C(=C/c2ccc(O)cc2)C1=O | -24% | -21%
Cc1cccc(N2CCN(C(c3ccccc3)c3nnc(-c4ccccc4Cl)o3)CC2)c1C (stereo not drawn) | -8% | -6%
Cc1ccc2nc(N3CCN(c4cccc(C)c4C)CC3)c3nnnn3c2c1 | -1%&-10% | -9%&-14%
Clc1ccc(-n2nnnc2Sc2ncnc3sccc23)cc1 | -27% | /
Cc1ccc(C)c(S(=O)(=O)N(C)c2ccc(OC(=O)C3CCN(C(=O)c4ccc(F)cc4)CC3)cc2)c1 | -10% | -25%

Source: PubChem BioAssay (National Center for Advancing Translational Sciences (NCATS))
